Bioassay records from PubChem.
Sfp PPTase inh – blocks B. subtilis Sfp PPTase activity. AID 1490. Q9F4F7. Potency, µM, inactives show max response, negative = inhibition, most hits filed as inhibitors. hit rate 3.5% among 310,000. Biochemical Sfp PPTase activity, qHTS; active means well fitted inhibition curve with a large enough effect; inconclusive means small, poorly fitted or top-dose-only effect, or another doubt; inactive means no such curve, though single readings can be large or run the other way;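 further: the enzyme is Sfp with the accession as filed and its product quenches rhodamine fluorescence; potency means the concentration at half of the fitted maximal effect; 0% = enzyme reaction without inhibitor and -100% = no enzyme wells; top concentration of the series not given in the record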
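Fluorescence-quenching assay: 15 nM Sfp-PPTase preincubated 15 min at room temperature with compound, then 5 uM rhodamine-CoA and 12.5 uM BHQ-2-labelled YbbR peptide added. Fluorescence (ex 525/em 598 nm) read at start and after 30 min; difference gives rate.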
D2 potentiator – human D2 receptor positive allosteric modulation. hit rate 0.23% among 360,000. AID 624464. potentiation, % (test concentration not listed). DiscoveRx D2 beta-arrestin cells, luminescence, 90 min; 100% = 57 uM dopamine signal. P14416; active = potentiation of 50% or more; inconclusive = 30% to 50%; inactive = 30% or less;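 further: compound concentration not given in the record; tested on top of an EC20 dose of dopamine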
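D2 cells co-treated with compound plus 50 nM dopamine (EC20) for 90 min at 37 deg C to detect potentiation. Beta-arrestin recruitment was read as enzyme-fragment luminescence after 1 h at ambient temperature. Full response was set by 57 uM dopamine.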
gsp antag – antagonists of gsp mutant (McCune-Albright syndrome); gsp-mutant cells, cAMP HTRF, 30 min; control for the full effect not named in the record; hit rate 0.4% among 340,000; Potency, µM (highest dose often 76.9 µM), inactives show at the highest dose activity change, negative = inhibition, usual class: inhibitors; active = falling curve of any shape with a large fitted effect; inconclusive = falling curve, mostly with a smaller effect; inactive = flat or rising curve; cell line not stated here;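 further: intracellular cAMP measured with PDE inhibitor Ro 20-1724 present during compound exposure; potency means the concentration at half of the fitted maximal effect; on the % scale 0 is the no-effect control and ±100 the full control effect; nearly all actives have a fitted effect of over 65% in size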
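Cells, 2000/well, grown 16–24 h in DMEM 10% FBS with 0.5 mg/ml G418, then compounds plus […] (300 uM addition stock), 30 min at 37C. cAMP read by HTRF (cAMP-d2 and anti-cAMP antibody-K in lysis buffer) after 30 min RT.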
ClpP mod – qHTS Assay for Activators of ClpP | ATP-dependent Clp protease proteolytic subunit (Bacillus subtilis (strain 168)), P80244 | purified B. subtilis ClpP, FRET peptide cleavage, 20 min | Potency, µM (highest dose often 57.5 µM), for inactives: at the top dose activity change, negative = active | hit rate 1.9% among 340,000 | AID 651965, 2013; active = well fitted falling curve with a large enough effect; inconclusive = small, poorly fitted or top-dose-only effect; inactive = no such curve, though single readings can be large or run the other way; further: potency means the concentration at half of the fitted maximal effect; the source files actives as falling curves though it sought activators and does not explain the sign; nearly all actives have a fitted effect of over 65% in size; many hits overshoot -100%
Target sequence (P80244 whole entry, looked up): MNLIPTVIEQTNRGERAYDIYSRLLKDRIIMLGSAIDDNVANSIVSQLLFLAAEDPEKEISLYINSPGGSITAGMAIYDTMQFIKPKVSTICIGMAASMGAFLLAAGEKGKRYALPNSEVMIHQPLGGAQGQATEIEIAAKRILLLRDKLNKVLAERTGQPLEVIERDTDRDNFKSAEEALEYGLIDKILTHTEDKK
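FRET quenching reversal measured ClpP activation: 10 microg/mL B. subtilis ClpP at pH 8 with the FRET-FV decapeptide, read at 430 nm after 320 nm excitation. The 20-min minus 0-min signal was scaled between DMSO/no-enzyme wells and ADEP (5.8 microM final).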
TRPV1 potentiator – human TRPV1 potentiation; TRPV1-expressing cells, Fluo-8 calcium influx, capsaicin EC20 potentiation; host cell line not named in the record; control for the full effect not named in the record; AID 540277; Q8NER1; potentiation, % at 8.33 µM; hit rate 0.02% among 320,000; active means potentiation above 80%; inconclusive means 30% to 80%; inactive means below 30%; further: 0% is about no effect
Target sequence (Q8NER1 whole entry, looked up): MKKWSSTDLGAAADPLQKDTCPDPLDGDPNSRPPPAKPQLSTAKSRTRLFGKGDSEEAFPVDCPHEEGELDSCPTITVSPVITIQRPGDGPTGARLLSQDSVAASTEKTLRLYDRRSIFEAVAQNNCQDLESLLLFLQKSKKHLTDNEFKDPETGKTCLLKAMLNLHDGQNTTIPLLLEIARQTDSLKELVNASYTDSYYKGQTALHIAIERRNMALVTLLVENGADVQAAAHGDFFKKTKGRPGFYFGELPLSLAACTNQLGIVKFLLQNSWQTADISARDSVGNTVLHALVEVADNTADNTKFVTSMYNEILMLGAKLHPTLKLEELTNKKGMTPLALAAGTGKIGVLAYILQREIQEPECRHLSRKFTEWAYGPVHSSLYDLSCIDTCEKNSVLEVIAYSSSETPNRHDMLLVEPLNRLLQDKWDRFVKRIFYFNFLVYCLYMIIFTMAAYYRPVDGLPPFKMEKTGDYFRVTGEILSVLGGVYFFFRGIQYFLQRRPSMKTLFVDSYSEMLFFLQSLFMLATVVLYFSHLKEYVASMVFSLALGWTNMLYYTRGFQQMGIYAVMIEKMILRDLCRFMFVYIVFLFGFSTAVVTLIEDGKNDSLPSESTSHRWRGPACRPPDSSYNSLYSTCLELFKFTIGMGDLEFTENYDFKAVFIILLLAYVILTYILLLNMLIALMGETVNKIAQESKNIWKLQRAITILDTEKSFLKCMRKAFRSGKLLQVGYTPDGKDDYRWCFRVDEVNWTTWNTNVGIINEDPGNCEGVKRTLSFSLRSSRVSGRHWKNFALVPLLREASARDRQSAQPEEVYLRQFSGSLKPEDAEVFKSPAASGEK
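TRPV1-expressing cells were cultured overnight at 35.5C and loaded with Fluo-8 calcium dye for 40 to 90 min at room temperature. After a 10 s baseline, compound was added and calcium influx was read kinetically for 3 min (ex 480/em 520 nm).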
gsp agonist – agonists of gsp mutant (McCune-Albright syndrome); AID 624287; Potency, µM (series often up to 76.9 µM), for the others: at the top dose activation (cAMP increase), hits mostly activators; hit rate 0.13% among 340,000; gsp mutant cells, cAMP HTRF, 30 min; control for the full effect not named in the record; active = well fitted activation curve with a large enough effect; inconclusive = small, poorly fitted or top-dose-only effect, or another doubt; inactive = no such curve, though single readings can be large or run the other way; cell line not stated here;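 further: phosphodiesterase inhibitor Ro 20-1724 added with compounds to block cAMP breakdown; potency means the concentration at half of the fitted maximal effect; nearly all actives have a fitted effect of over 60% in size; about a fifth of the inactives were tested at one dose only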
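Cells stably selected in G418 were plated at 2000/well, grown 16-24 hr, then given compounds in DMSO with the PDE inhibitor […] (300 uM solution added) for 30 min at 37C; cAMP was read by HTRF.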
Menin-MLL FL inh – inhibitors of human menin-MLL interaction, wild-type MLL peptide. Fluorescence polarization, fluorescein-MLL peptide displacement from menin. FP activity change, % at 61.4 µM. 290,000 tested, under 10 active. AID 1766; inconclusive = falling polarisation curve, or a change in total fluorescence; inactive = total fluorescence flat and polarisation flat or rising; no compound was filed as active; the % refers to the polarisation; negative = inhibition;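 further: % of control where 0% means no effect; inhibitors lower the polarisation; unlabelled MLL peptide was the positive control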
* marks the source's active call; other numbers are inactive results; ? = inconclusive; · = no result given; & = joins results of further samples; [ ] = another dose, or the depositor's remark.

SMILES	Sfp PPTase inh	D2 potentiator	gsp antag	ClpP mod	TRPV1 potentiator	gsp agonist	Menin-MLL FL inh
CCN(CC)S(=O)(=O)c1ccc(/C=C/C(=O)OCC(=O)N(C(C)C)C(C)C)cc1	-6%	0	-59%	·	1	15%[15.4 µM]	0.2
O=C(CN1CCN(C2CCCCC2)CC1)c1ccc2cc[nH]c2c1	4%	-11	12%	3.8%	7	-120%[inhibitor]	1.9
CSc1nnc(Cn2c(=O)sc3ccccc32)n1-c1ccccc1C	·	-4	-1%	-0.8%	·	1%	·
Oc1cccc(CN2CCCCC2)c1	0%	-7	12%	-1.5%	-24	10%[15.4 µM]	0.0
O=C1C2CCCCN2C(=O)N1CCCN1CCN(c2ccc(F)cc2)CC1 (stereo not given)	-1%	-22	6%	·	-9	?	-1.0
Cc1ccc(/C=C(\NC(=O)c2ccccc2)C(=O)N2CCCC2C(=O)O)cc1 (stereo not given)	5%	3	11%	·	7	-1%	0.0
CC(C)NC(=O)N(C)C[C@H]1Oc2c(NC(=O)Cc3ccccc3)cccc2C(=O)N([C@H](C)CO)C[C@@H]1C	·	-6	5%	-4.0%	·	12%	·
CC(C)NC(=O)NC(=O)COC(=O)c1ccc(F)cc1F	23%	-5	10%	-1.3%	-2	7%[15.4 µM]	0.1
CCC(=O)NCCc1nc2cc(NC(=O)c3cccc([N+](=O)[O-])c3)ccc2n1C	0%	-5	12%	-0.1%	-16	13%[15.4 µM]	1.6
O=C(NCC1CCCO1)c1cccnc1Nc1ccccc1F (stereo not given)	10%	-5	-2%	0.6%	-12	-35%[inhibitor]	-4.3
CCN(CC)S(=O)(=O)c1cccc(-c2n[nH]c(=S)n2/N=C/c2ccc(OC)cc2)c1	79µM*	-18	-8%	-0.5%	-8	-1%	3.9
Cn1c(=O)c2c(O)c([N+](=O)[O-])c(=O)n(C)c2n(C)c1=O	4%	-11	-5%	·	15	-39%[15.4 µM]	-0.1
CCn1c(SCC(=O)N2CCCCC2)nc2c([nH]c3ccccc32)c1=O	·	-14	·	-13%	·	0%	·
Cc1nnc(NC(=O)c2ccc(S(=O)(=O)N(C)c3ccccc3)cc2)s1	·	1	-3%	-2.4%	22	47%	·
S=c1[nH]cnc2scc(-c3ccc(Br)cc3)c12	8%	-9	-6%	·	-12	21%	2.6
CC(Sc1cccc[n+]1[O-])C(=O)Nc1ccc(Oc2ccccc2)cc1 (stereo not given)	2%	-9	-6%	0.4%	3	15%[15.4 µM]	3.0
COc1c(F)c(F)c(C(=O)O)c(Nc2ccc(C)cc2C)c1F	6%	-1	?	·	13	-21%	0.7
CCCCNCCCCOc1ccccc1	6%	-17	15%	0.3%	7	-15%	-0.5
Cc1ccc(-n2nc(C(=O)O)c(O)cc2=O)cc1	-25%	10	3%	·	1	20%	14
CCCCNS(=O)(=O)c1ccc2nc(-c3cccnc3)cc(C(=O)NC(C)C)c2c1	-4%	-1	-1%	-2.1%&2.0%	0	-3%	0.9
CCCc1nc(NC(=O)c2ccccc2)nc(NC(=O)c2ccccc2)n1	-11%	-9	-1%	-1.0%	3	-33%[inhibitor]	-15
O=C(c1ccco1)N1CCN(CCCCOc2cccc3ccccc23)CC1	?	3	-7%	1.2%	-6	0%	-1.6
CC1CCN(C(=O)C2Cc3ccccc3CN2S(=O)(=O)c2ccc(F)cc2)CC1 (stereo not given)	-3%	-8	0%	-3.0%	-12	0%	1.0
COc1ccc(C(=O)N2CCC(N3CCN(c4ccccc4)CC3)CC2)cc1	?	-25	-5%[15.4 µM]	-4.0%	1	-50%[inhibitor]	3.3
COc1ccc(Cl)cc1NC(=O)CN1CCN(S(=O)(=O)N2CCCCC2)CC1	14%	-10	-10%	-0.5%	-16	-5%[15.4 µM]	2.1
O=C(NC1CCCCCCC1)c1ccc(Br)o1	11%	-19	4%	·	-3	9%	-1.8
Cc1nc(-c2ccccc2)sc1C1(C)CC(c2ccc([N+](=O)[O-])cc2)=NO1 (stereo not given)	4%	5	6%	-0.6%	28	·	-1.1
CCC(=O)N1CCc2cc(S(=O)(=O)NC(Cc3ccccc3)C(=O)NC3CCCCC3)ccc21 (stereo not given)	7%	-11	-2%	-1.2%	7	-1%	3.9
COc1ccc(C2C3=C(CC(C)(C)CC3=O)N(CC(=O)O)C3=C2C(=O)CC(C)(C)C3)cc1OC	14%	-9	8%	-1.8%	7	2%	-0.3
O=C(NCc1cccnc1)c1ccc(-c2ccccc2[N+](=O)[O-])o1	3%	-13	-12%	2.3%	4	1%	0.3
O=C1OCCN1CCNCc1cn(-c2ccc(F)cc2)nc1-c1ccccc1Cl	8%	-3	1%	·	20	-28%	-0.5
C=CCOc1cccc(CNn2cn[nH]c2=S)c1	-4%	8	4%	-3.5%	·	-17%	-0.8
Cc1[nH]c(=O)[nH]c(=O)c1NS(=O)(=O)c1ccccc1	18%	-9	6%	-7.3%	10	-71%[inhibitor]	2.8
CC(O)c1nc2ccc(Cc3ccc4nc(C(C)O)[nH]c4c3)cc2[nH]1 (stereo not given)	14%	-6	2%	-3.9%	-1	-43%[inhibitor]	1.1
COc1cc(NC(=O)COc2c(C)cc(C)cc2[N+](=O)[O-])c(OC)cc1Cl	50µM*	-1	-28%	·	6	14%[15.4 µM]	-0.5
CC(C)(C)c1ccc(CN2N=Nc3ccccc3S2(=O)=O)cc1	2.8µM*	-10	24%	0.2%	17	25%	4.3
COc1cccc(-c2ccc3ncnc(NCc4cccs4)c3c2)c1	12%	·	·	·	-12	·	-3.4
COCCOC(=O)c1[nH]c2c(c1C)C(=O)CC(c1ccc(N(C)C)cc1)C2 (stereo not given)	-5%	0	-15%	0.8%	-8	12%	2.7
CCOc1cc(/C=N/NC(=O)CN(CCc2ccccc2)S(=O)(=O)c2ccc(NC(C)=O)cc2)ccc1O	6%	-12	-22%	-0.2%	-22	-5%[15.4 µM]	2.0
COC(=O)C(CCSC)NC(=O)C(NC(=O)C1CCC(C)CC1)C(C)C (stereo not given)	16%	-5	5%	0.7%	2	-1%	5.9
C/C(=N\NC(=O)c1ccc(F)cc1)c1cccc(NC(=O)c2cccc(F)c2)c1	16%	-10	-2%	0.8%	3	?	·
Cc1cc(NC(=O)COC(=O)COc2ccc3c(c2)CCC3)no1	11%	1	-1%	-1.7%	0	12%	2.4
O=C(c1cc2cc([N+](=O)[O-])ccc2oc1=O)n1cccn1	20%	-4	4%	·	3	29%	1.3
Nc1nc(-c2ccccc2)nc(-c2ccccc2O)n1	·	-3	-7%	1.5%	·	18%	·
CCOC(=O)C1CCCN(S(=O)(=O)c2ccc(F)c(C(=O)Nc3ccc(F)c(F)c3)c2)C1 (stereo not given)	15%	-6	-11%	-3.8%&-2.2%	-9	-38%[inhibitor]	-1.8
Cc1nc2cc(-c3cccc(F)c3)nn2c(C)c1CCC(=O)N1CCN(c2ccccn2)CC1	-7%	-5	-3%	?	-14	13%	-0.2
Cc1cc2oc(=O)cc(CN(C)Cc3ccccc3F)c2cc1Cl	-13%	-4	-11%	·	?	?	0.6
COC(=O)/C=C/c1ccc2c(c1)OCO2	16%	-5	0%	·	9	26%	-3.0
CC(=O)NC1CCC(C(=O)O)(c2ccccc2)C1 (stereo not given)	11%	-8	-1%	0.8%	-10	?	4.2
COc1ccccc1N1CC(C(=O)Nc2ccc(S(=O)(=O)N3CCCC3)cc2)CC1=O (stereo not given)	·	-6	-1%	·	·	15%	·
Cc1ccc(S(=O)(=O)N(CC(=O)NCc2ccco2)C2CCCCC2)cc1	-15%	2	-2%	0.5%	-4	14%	1.5
COc1ccc(OC)c(NC(=O)CCNS(=O)(=O)c2ccc3[nH]c(=O)oc3c2)c1	-3%	-1	-1%	2.1%	-6	-31%[inhibitor]	-1.1
Oc1ccc2ccccc2c1CNc1ccc2ccccc2c1	·	-8	-19%	·	·	?	·
CC(NC(=O)COC(=O)Cc1ccsc1)c1ccccc1 (stereo not given)	-3%	-17	2%	0.3%	-4	3%	1.4
O=C(C[n+]1cc(-c2ccc(Cl)cc2)n2c1CCC2)N1c2ccccc2Sc2ccccc21	?	-36	10%	2.9%	-13	6%	-1.1
O=c1oc(-c2ccco2)nc2c1cnn2-c1ccccc1	1%	-8	12%	?	-17	?	1.2
COC(=O)C(Cc1ccc(O)cc1)NC(=O)C(CC(=O)OC(C)(C)C)NC(=O)OC(C)(C)C (stereo not given)	-3%	-7	2%	·	-12	9%[15.4 µM]	0.5
COc1ccc(NC(=O)c2cc(-c3ccncc3)nc3ccc(Br)cc23)cc1OC	?	1	12%	-0.5%	7	28%	1.5
Cc1cnc(=O)[nH]c1SCc1cccc(C(F)(F)F)c1	14%	-7	7%	-6.3%	8	-13%	-1.0
CSc1nncc(/C(C)=N\Nc2ccccc2)n1	2%	0	7%	0.5%	14	-19%	-1.7

(list continues)
SMILES	Sfp PPTase inh	D2 potentiator	gsp antag	ClpP mod	TRPV1 potentiator	gsp agonist	Menin-MLL FL inh
CC1(C)CC(=O)C/C(=N\NC(=O)Cc2ccccc2)C1	19%	-11	17%	-2.8%	-2	4%[15.4 µM]	7.2
O=c1c2c([nH]c3ccccc13)CCC2	11%	0	3%	-14%	2	-1%	-2.0
C=CCn1c(C)cc(C(=O)CSc2n[nH]c(N)n2)c1C	-11%	2	6%	0.1%	-6	-6%	-3.0
COc1cc(OC)cc(-n2nnnc2SCC(=O)Nc2nc3c(s2)CCCC3)c1	-9%	-16	-2%	-0.6%	-2	?	-0.6
O=C(CSc1nc(N2CCCCC2)nc(N2CCCCC2)n1)N1CCc2ccccc21	-6%	·	·	·	2	·	2.3
Cc1ccc(CNC(=O)CNC(=O)c2ccc(C(C)(C)C)cc2)n1C	·	-3	19%	-1.7%	·	-20%	·
CC(C)OCC(O)CN1CCN(CC(O)COc2ccc3c(c2)OCO3)CC1 (stereo not given)	-4%	-4	10%	-6.0%	3	1%	0.0
CCOc1cc(NCc2ccccc2)c2ncn(C(C)C)c2c1	·	9	-9%	0.2%	·	·	·
